Screening data as filed in PubChem BioAssay.
ALR H2O2 inh = human ALR oxidase inhibition via reduced H2O2. AID 485317. hit rate 3.8% among 290,000. purified ALR, DTT oxidation, H2O2 HRP-luminol luminescence. P55789. inhibition, % (concentration not given with the values);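 active = mean and each replicate at 75% or more; inconclusive = only one of the two met; inactive = neither met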;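 note: stock transfer was 7.5 nL into about 7.5 µL; 0% = neutral wells and 100% = wells with inactivated enzyme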
RanGTP-Impb inh = disruptors of Ran-importin-beta complex formation – biochemical, FRET, CFP-Ran, YFP-importin-beta, homogeneous, primary screen. cell-free CFP-Ran/YFP-importin-beta FRET ratio. inhibition, % (no concentration beside the values). hit rate 1.1% among 300,000;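 active = most replicates above 15%; inconclusive = exactly half above 15%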;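 note: 0% = DMSO wells and 100% = Ran loaded with GDP instead of GTP; wells of about 40 µL received 100 nL stock; the first replicate is given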
Calb FLC = affects C. albicans growth with fluconazole | hit rate 0.57% among 300,000 | C. albicans CaCi-2 (fluconazole-resistant clinical isolate) + fluconazole, Alamar Blue growth, 48 h | growth inhibition, % (concentration not given with the values);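 active = most replicates above 75%; inconclusive = exactly half above 75%; inactive = most below 75%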;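 note: all wells also contain fluconazole at 8 µg/ml as a sub-toxic cotreatment; 0% = median of DMSO wells and 100% = median of geldanamycin control wells; wells of about 8 µL received 7.5 nL stock; the first replicate is given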
LANA-H2B inh = blocks KSHV LANA binding to histone H2A/H2B; inhibition, % (concentration not given with the values); Q9QR71; AID 2629; cell-free LANA-H2A/H2B peptide, fluorescence polarization; hit rate 0.6% among 320,000; in the data active = inhibition mostly above about 10%, no sharp cut-off; inactive = mostly below about 6.7%;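 note: stock transfer was 7.5 nL into about 10 µL; 0% = median of vehicle wells and 100% = median of positive control wells; one replicate is shown; the record names a cut of 25% in any replicate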
Target sequence (Q9QR71 whole entry, looked up): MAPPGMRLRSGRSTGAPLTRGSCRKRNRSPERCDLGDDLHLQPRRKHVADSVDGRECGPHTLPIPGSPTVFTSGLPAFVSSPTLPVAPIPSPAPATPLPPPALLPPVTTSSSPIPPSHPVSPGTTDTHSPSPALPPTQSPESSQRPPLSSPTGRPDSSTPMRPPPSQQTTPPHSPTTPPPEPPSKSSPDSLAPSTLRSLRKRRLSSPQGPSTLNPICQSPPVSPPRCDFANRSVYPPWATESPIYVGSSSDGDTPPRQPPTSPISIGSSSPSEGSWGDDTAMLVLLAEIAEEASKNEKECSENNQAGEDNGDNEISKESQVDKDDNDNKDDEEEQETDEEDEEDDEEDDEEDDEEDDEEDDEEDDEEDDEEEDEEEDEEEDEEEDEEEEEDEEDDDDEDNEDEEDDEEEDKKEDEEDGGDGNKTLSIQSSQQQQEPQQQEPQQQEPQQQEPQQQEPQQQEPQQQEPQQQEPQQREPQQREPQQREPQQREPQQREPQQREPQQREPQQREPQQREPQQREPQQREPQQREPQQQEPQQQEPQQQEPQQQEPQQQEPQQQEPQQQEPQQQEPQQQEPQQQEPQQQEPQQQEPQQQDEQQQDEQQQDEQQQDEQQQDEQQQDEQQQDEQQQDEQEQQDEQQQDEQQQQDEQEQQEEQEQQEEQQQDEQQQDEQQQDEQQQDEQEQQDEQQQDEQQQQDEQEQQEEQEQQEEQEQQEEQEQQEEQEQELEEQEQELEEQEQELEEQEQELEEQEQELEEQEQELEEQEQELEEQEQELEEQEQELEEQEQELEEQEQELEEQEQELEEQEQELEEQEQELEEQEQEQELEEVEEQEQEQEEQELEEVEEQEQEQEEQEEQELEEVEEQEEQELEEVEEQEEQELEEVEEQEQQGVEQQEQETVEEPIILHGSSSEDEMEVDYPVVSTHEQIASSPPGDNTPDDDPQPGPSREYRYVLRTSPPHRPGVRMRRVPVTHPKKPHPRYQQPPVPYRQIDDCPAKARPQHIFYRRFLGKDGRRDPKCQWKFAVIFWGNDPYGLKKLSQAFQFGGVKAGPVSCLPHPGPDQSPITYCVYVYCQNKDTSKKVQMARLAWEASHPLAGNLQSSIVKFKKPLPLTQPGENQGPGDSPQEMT
Beta2AR agonist = activates human beta-2 adrenergic receptor causing internalization. Am2.2-beta2AR cells, FAP receptor internalization, flow cytometry; reference of the scale not given here. hit rate 0.43% among 340,000. P07550. response, % (no concentration beside the values);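 active = response above a set limit, near 3 SD of response in nonfluorescent compounds, cut at about 42% in these data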;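 note: stock transfer was 100 nL into about 11 µL; a reference agonist was the positive control; negative values mostly stem from fluorescent compounds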
Vif TR-FRET = inhibitors of Vif binding to APOBEC3G peptide, primary screen, biochemical, TR-FRET, GST-Vif 1-94, biotin-A3G peptide, dose response retest (AID 1117319) | hit rate 0.57% among 260,000 | TR-FRET GST-Vif / biotin-A3G peptide binding; higher % means a stronger effect; test concentration not given here; strong numbers were not always called active | one-dose inhibition, %; IC50 in µM for titrated hits;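 active = above the screen mean plus three standard deviations and confirmed in dose response; inconclusive = results disagree or hit not tested in dose response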;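 note: Vif residues 1-94 fused to GST binding biotinylated APOBEC3G peptide 110-148; 0% = full assay without inhibitor and 100% = GST in place of GST-Vif; retest series ran down from 100 µM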
HNF4A DNA FP = change in binding of human HNF4 alpha to DNA. P41235. HNF4a-FITC DNA binding, fluorescence polarization, 1 h. activity change, % at 10 µM. hit rate 0.3% among 360,000; in the data active = activity change above about 30%, passing the limit was not always enough;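 note: controls were the assay level and a saturating level of protein; the project sought stronger binding though the title names inhibitors; some compounds called inactive have numbers as strong as hits; positive values seem to mean higher polarization but the record does not say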
The depositor's hits bear a star; ? = inconclusive; . = no result given; & = joins results of further samples.

SMILES	ALR H2O2 inh	RanGTP-Impb inh	Calb FLC	LANA-H2B inh	Beta2AR agonist	Vif TR-FRET	HNF4A DNA FP
COc1cc(OC)cc(C(=O)NC2CC3CCC(C2)N3C)c1 (centres undefined)	-4	.	.	.	-3	-11%	-3.6
CC(C)CC(=O)NCC(C)NC(=O)CC(C)C (centres undefined)	-2	-0.8	-7	8.2	10	26%	1.8
Cc1ccc(S(=O)(=O)CC(=O)N2CCN(c3cccc(C(F)(F)F)c3)CC2)cc1	1	?	1	1.1	-1	.	0.0
N#CC1=C(N)Oc2cc(N)ccc2C1c1cccnc1 (centres undefined)	.	24*	-1	5.7	-3	2%	0.1
COCCCNC(=O)Cc1coc2ccc3ccccc3c12	-179	1.8	4	0.4	-6	?	2.9
COc1cccc(NC(=O)c2cc(-c3ccco3)nc3ccccc23)c1	-2	2.0	0	4.5	-11	.	2.4
CCC(Oc1ccccc1)C(=O)Nc1cc(Cl)ccc1-n1cncn1 (centres undefined)	.	1.7	4	.	0	-1%	-0.9
Cc1cccc(N(C)Cc2nnc(-c3cccc(Br)c3)o2)c1	9	5.0	7	2.0	-5	3%	0.3
Cc1ccc(CNC(=O)CS(=O)Cc2nc(-c3ccccc3F)oc2C)cc1 (centres undefined)	96*	1.8	-7	-4.8	-1	-3%	-2.3
CCOC(=O)N1CCN(Cc2nc3cc(NC(=O)c4cccs4)ccc3n2C)CC1	-4	1.0	-2	-16	-7	-3%	-2.2
COCCSc1ccccc1C(=O)Nc1nnc(COC)s1	-3	4.7	3	6.1	2	1%	1.6
Cc1ccc(C(=O)Nc2cccc(N(C)S(C)(=O)=O)c2)cc1S(=O)(=O)Nc1ccccc1	-2	-1.4	-5	-10	-2	-11%	1.5
Cc1ccc(S(=O)(=O)N(C)c2ccc(C(=O)N3CCc4ccccc4C3)cc2)cc1	-19	2.6	10	3.4	-7	6%	2.2
N/C(=N\c1nc(CSc2ccc(Cl)cc2)cc(=O)[nH]1)Nc1cccc2ccccc12	2	-3.0	-1	5.6	-7	-1%	0.2
COc1cc(/C=N/NC(=O)C(Cc2c[nH]c3ccccc23)NC(=O)OCC(C)C)cc([N+](=O)[O-])c1OCc1ccccc1 (centres undefined)	-15	4.4	12	-2.2	-4	0%	-1.6
COc1ccccc1C(=O)COC(=O)c1nc(Cl)ccc1Cl	-8	2.9	-3	-0.6	2	3%	0.1
Cc1cccc2cc(C3CC(c4ccco4)=NN3S(=O)(=O)c3ccccc3)c(Cl)nc12 (centres undefined)	2	-1.0	-1	2.9	20	1%	9.6
O=C(NC(Cc1ccccc1)C(=O)O)c1ccccc1 (centres undefined)	-4	-1.5	?	0.6	-1	3%	0.9
COC(=O)Cn1c(C(=O)N2CCCC2)cc2c1C[C@H]1CN(C(=O)c3ccccc3)[C@@](Cc3ccc(F)cc3)(C(=O)OC)[C@@H]21	-1	.	.	5.1	-15	.	4.1
Cc1cccc(NC(=O)Nc2cccnc2)c1C	-12	.	16	2.2	-1	.	4.7
O=C(CCc1n[nH]c(=O)[nH]c1=O)N/N=C/c1ccco1	-4	1.5	-18	-2.6	5	?	-3.3
COc1cc(/C=N/NC(=O)C(N)=O)ccc1OC(=O)c1cccs1	-1	-0.5	-4	2.8	2	6%	1.1
COCCn1c(N)c(C(=O)Nc2sc3c(c2C(=O)OC)CCCC3)c2nc3ccccc3nc21	-3	1.1	-7	-1.3	-9	-2%	0.8
COc1cccc(C2Nc3c(F)cc(Br)cc3C3C=CCC32)c1OC (centres undefined)	15	?	4	2.6	7	5%	-13
Nc1nc(-c2ccc3c(c2)CCO3)cs1	97*	2.1	-4	-1.7	-1	-3%	0.7
COC(=O)CSc1nnc(-c2ccccc2OC)o1	-4	2.6	20	-4.0	3	6%	1.6
CC(C)C(NC(=O)c1ccc2c(c1)OCO2)C(=O)N/N=C/c1cccs1 (centres undefined)	0	-3.6	-11	4.5	-6	-10%	0.7
c1ccc2cc(CCO[C@H]3CCCCO3)ncc2c1	0	.	.	3.0	-2	.	-2.9
Cc1cc(C)n(CC(=O)O)c(=O)c1[N+](=O)[O-]	-3	.	-15	6.0	14	-5%	-2.4
COc1ccc(CN2C(=O)c3ccccc3C2=O)cc1C(=O)N(C)CC(=O)Nc1c(C)cccc1C	13	.	.	2.4	-7	2%	8.6
CCOC(=O)C1CCCN(C(=O)c2sc3nc(-c4ccccc4)cn3c2C)C1 (centres undefined)	-2	3.9	29	-66	-7	-5%&14%	-0.3
CCOc1ccc(N(Cc2cc3ccc(C)cc3[nH]c2=O)S(=O)(=O)c2ccccc2)cc1	-10	1.6	-7	5.6	-12	.	-1.5
COc1c(Cl)cc(C(=O)NCc2ccco2)cc1Cl	-5	-3.7	50	1.5	-9	-3%	-0.3
CC[C@]12c3[nH]c4cc(CCC(=O)N(C)C)ccc4c3CCN1C(=O)[C@@H](CC(=O)NCCC1=CCCCC1)C[C@@H]2C(=O)N1CCN(C(=O)c2ccco2)CC1	.	.	.	.	-5	-3%	2.0
Cc1ccccc1NS(=O)(=O)c1ccc(C(=O)NCC(c2ccccc2)N(C)C)cc1 (centres undefined)	-7	-1.4	-15	5.7	6	.	0.3
Cc1nc(SCC(=O)NCC2CCCO2)c2c3c(sc2n1)CCCC3 (centres undefined)	?	-1.5	-4	-2.4	-11	.	-0.7
O=C(Cn1c(O)c(/C=C2\C=Nc3ccc(Br)cc32)sc1=O)N1CCCC1	.	0.4	29	5.8	5	-1%	-1.8
CCCOCn1cc(F)c(=O)[nH]c1=O	-19	-0.1	-15	-3.7	10	-8%	5.5
COc1c(C)cc(C(=O)C2CCCN(S(=O)(=O)N(C)C)C2)cc1C (centres undefined)	-4	3.7	7	-0.4	3	.	1.0
Cc1ccc(/C=C(\NC(=O)c2ccccc2)C(=O)OCc2ccccc2)cc1	4	2.1	10	2.8	0	.	-1.8
CCN1C(=O)N[C@H](c2ccc(Br)cc2)C(C(C)=O)=C1C	-4	?	-31	1.6	2	2%	7.6
NC(=O)C1CCN(C(=O)c2ccc(Cl)c(S(=O)(=O)NCc3ccco3)c2)CC1	-3	.	.	7.5	-4	-5%	-1.5
Cc1nc2ncnn2c(N2CCN(C(=O)c3cccc(F)c3)CC2)c1Cc1ccccc1	-16	-0.1	?	-1.7	4	0%	-4.0
Cc1ccc(C)c(OCCC(=O)OCC(=O)NNC(=O)c2ccccc2)c1	-4	.	.	-5.7	-2	-8%	-1.6
COc1cccc(C(=O)OCC(=O)NCCCc2ccccc2)c1	.	0.0	-3	-3.2	1	4%	3.0
CCCCOc1ccc(/C(O)=C2/C(=O)C(=O)N(CCCOC)C2c2ccncc2)cc1C (centres undefined)	2	-2.6	4	2.8	-3	0%	-0.1
Cc1cc(C)nc(N2CCC(C(=O)Nc3cccc(C(F)(F)F)c3)CC2)n1	-19	?	-73	1.2	8	1%	-1.0
CC1CCN(C(=O)COC(=O)c2cc(Cl)cc(Cl)c2N)CC1	-5	0.2	-28	-14	-4	-2%	-1.7
CCN(CC)c1nc2c(c(=O)[nH]c(=O)n2C)n1Cc1ccccc1Cl	-14	0.7	-5	-0.9	1	3%	0.5
Cc1ccc(Cl)cc1N1CCN(S(=O)(=O)c2cccc(S(=O)(=O)N3CCCC3)c2)CC1	-8	1.4	-2	-1.7	2	-6%	-0.4

Ordered by SMILES length (ascending): part of the list above
SMILES	ALR H2O2 inh	RanGTP-Impb inh	Calb FLC	LANA-H2B inh	Beta2AR agonist	Vif TR-FRET	HNF4A DNA FP
CC1CCN(C(=O)COC(=O)c2cc(Cl)cc(Cl)c2N)CC1	-5	0.2	-28	-14	-4	-2%	-1.7
CCN1C(=O)N[C@H](c2ccc(Br)cc2)C(C(C)=O)=C1C	-4	?	-31	1.6	2	2%	7.6
Cc1ccc(C)c(OCCC(=O)OCC(=O)NNC(=O)c2ccccc2)c1	-4	.	.	-5.7	-2	-8%	-1.6
CCN(CC)c1nc2c(c(=O)[nH]c(=O)n2C)n1Cc1ccccc1Cl	-14	0.7	-5	-0.9	1	3%	0.5
Cc1cc(C)nc(N2CCC(C(=O)Nc3cccc(C(F)(F)F)c3)CC2)n1	-19	?	-73	1.2	8	1%	-1.0
CCCCOc1ccc(/C(O)=C2/C(=O)C(=O)N(CCCOC)C2c2ccncc2)cc1C (centres undefined)	2	-2.6	4	2.8	-3	0%	-0.1
Cc1ccc(Cl)cc1N1CCN(S(=O)(=O)c2cccc(S(=O)(=O)N3CCCC3)c2)CC1	-8	1.4	-2	-1.7	2	-6%	-0.4

(next part)
SMILES	ALR H2O2 inh	RanGTP-Impb inh	Calb FLC	LANA-H2B inh	Beta2AR agonist	Vif TR-FRET	HNF4A DNA FP
CCOc1cc(S(=O)(=O)N2CCN(Cc3ccccc3)CC2)ccc1Br	-1	-0.9	6	-3.7	11	3%	0.9
COc1ccc(NC(=S)NC(=O)c2ccc3c(c2)OCCO3)cc1	-2	.	.	-2.0	-4	.	-0.8
CCCCCCCCCCCCCCCC(=O)OC/C=C(C)/C=C/C=C(C)/C=C/C1=C(C)CCCC1(C)C	3	.	.	-2.0	-3	.	-6.2
C=CCn1c(=O)c2c3c(sc2n2c(Nc4ccc(OC)cc4)nnc12)CCCC3	9	.	.	-4.9	-7	9%	1.7
CCOC(=O)c1ccc2nc(NC(=O)C(C)C)sc2c1	-7	3.3	-4	2.1	-10	-3%	2.9
CC(=O)NC1C(=O)N=C(SCC(=O)Nc2sc3c(c2C#N)CCCCCC3)NC1=O (centres undefined)	99*	0.5	-10	1.6	-7	-12%	5.4
COc1ccc(C)cc1NC(=O)Nc1ccc(Br)cn1	2	8.2	3	0.6	1	-8%	-1.5
COC(=O)C1=C(C)NC(C)=C(C(=O)OC)C1c1ccc(-c2cc(Cl)ccc2Cl)o1	-2	2.2	-13	0.3	12	-5%	3.0
NS(=O)(=O)c1ccc(CCNC(=O)CNC(=O)C2CCCCC2)cc1	3	3.5	1	0.2	-10	1%	3.0
CN1CCN(c2nc(-c3cccnc3)nc3ccccc23)CC1	-3	6.0	12	0.3	-17	>100µM*	-2.4

Structures above printed as active in Vif TR-FRET:
molecule,ALR H2O2 inh,RanGTP-Impb inh,LANA-H2B inh,Beta2AR agonist,Vif TR-FRET,HNF4A DNA FP
CN1CCN(c2nc(-c3cccnc3)nc3ccccc23)CC1,-3,6.0,0.3,-17,>100µM*,-2.4

(continued)
SMILES	ALR H2O2 inh	RanGTP-Impb inh	Calb FLC	LANA-H2B inh	Beta2AR agonist	Vif TR-FRET	HNF4A DNA FP
COc1ccc(CC(=O)NCc2nnc(SCC(=O)Nc3nccs3)n2-c2ccccc2)cc1	5	4.1	7	-4.3	-3	6%	2.2
Cc1[nH]c2ccccc2c1C(=O)C(=O)NCCCc1ccccc1	-3	-1.4	-1	4.2	-9	-5%	0.2
O=C(CCC(=O)N(CC(=O)NC1CCCCC1)Cc1cccs1)Nc1ccccn1	1	4.4	47	0.0	-2	-9%	-3.8
CCCc1cc2c(=O)c(-c3ccccn3)c(C)oc2cc1O	10	4.4	9	3.0	-4	-4%	2.5
O=c1cc(CCl)nc2sc3ccccc3n12	.	-1.6	-8	.	-4	25%	-17
CSCC[C@H](NC(=O)OC(C)(C)C)c1nnc(SCC(N)=O)o1	-8	1.4	4	-4.2	-10	-4%	-3.5
Cc1cccc(OCC(O)Cn2c(=N)n(CCN3CCOCC3)c3ccccc32)c1 (centres undefined)	-4	-8.8	-2	1.7	-3	8%	3.8
Cn1c(CNC(=O)CNC(=O)c2ccc(C(C)(C)C)cc2)cc(=O)n(C)c1=O	-4	?	-4	2.4	1	-3%	3.2
O=C(NCC(c1ccc(F)cc1)N1CCOCC1)c1ccccc1F (centres undefined)	4	-3.2	-13	4.4	13	-7%	-1.7
Cc1ccc(N(C)S(=O)(=O)c2csc(C(N)=O)c2)cc1C	2	-1.9	5	-6.6	2	0%	0.5
